Source: PubChem
Polio RdRp inh: poliovirus RNA polymerase inhibition; % elongation, % (compound at 16.7 µg/mL); 150,000 compounds, 0.66% hits; poliovirus polymerase elongation, fluorescence polarization; active compounds read low; P03300; in the data active = % elongation below about 90%; note: some results filed as inactive read as strong as hits
Target sequence (P03300 1749-2209 limits assumed): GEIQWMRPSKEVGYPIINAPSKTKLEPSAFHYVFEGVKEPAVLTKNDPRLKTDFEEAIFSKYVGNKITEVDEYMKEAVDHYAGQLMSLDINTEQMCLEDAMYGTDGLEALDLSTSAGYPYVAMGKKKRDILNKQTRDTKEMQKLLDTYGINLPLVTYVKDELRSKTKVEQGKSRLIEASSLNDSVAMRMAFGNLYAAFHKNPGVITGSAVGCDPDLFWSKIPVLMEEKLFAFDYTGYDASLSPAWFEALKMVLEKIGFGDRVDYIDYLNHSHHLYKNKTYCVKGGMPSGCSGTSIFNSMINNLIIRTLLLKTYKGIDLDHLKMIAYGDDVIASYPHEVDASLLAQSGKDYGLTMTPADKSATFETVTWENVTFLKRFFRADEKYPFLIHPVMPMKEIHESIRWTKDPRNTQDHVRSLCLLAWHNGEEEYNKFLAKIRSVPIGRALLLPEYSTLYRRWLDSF
MbtI inh: inhibitors of Mycobacterium tuberculosis siderophore enzyme MbtI | P9WFX0 | purified MbtI enzyme, fluorescence intensity read-out | inhibition, %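 (about 17 µg/mL by stock and volumes)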 | 100,000 compounds, 0.89% hits | AID 493033;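 active = above 50% in both replicates, above 80% if mildly self-fluorescent; inactive = the rest, strongly fluorescent compounds included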;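 note: 0% = mean of negative and 100% = mean of positive controls; one replicate is shown; some compounds called inactive have numbers as strong as hits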
Mtb MenB inh: inhibitors of Mycobacterium tuberculosis MenB enzyme. 100,000 compounds, 0.43% hits. MenB enzyme assay, absorbance read-out; some hits fall short of the stated cut. inhibition, %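 (about 12 µg/mL by stock and volumes)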;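 active = mean of two replicates above 30%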;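 note: 0% = no compound and 100% = wells with inactive enzyme; the first replicate is given; strong numbers were not always called active; inactives centre near -10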
Target sequence (P9WNP5 whole entry, looked up): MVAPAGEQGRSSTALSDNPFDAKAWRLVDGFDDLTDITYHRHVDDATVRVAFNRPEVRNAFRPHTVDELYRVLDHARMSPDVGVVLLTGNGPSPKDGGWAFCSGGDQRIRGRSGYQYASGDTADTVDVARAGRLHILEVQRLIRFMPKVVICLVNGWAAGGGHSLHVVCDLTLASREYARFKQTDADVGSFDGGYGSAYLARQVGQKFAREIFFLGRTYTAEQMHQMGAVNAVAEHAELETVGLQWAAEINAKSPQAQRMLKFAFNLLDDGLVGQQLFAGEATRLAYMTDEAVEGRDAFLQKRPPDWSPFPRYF
Polio RdRp inh intensity: second read-out of Polio RdRp inh, no call of its own (marks repeat the call); % elongation; measured here: total intensity read-out; formula for this scale not given here;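 total fluorescence in place of polarization; lower means less elongation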
Active calls of the source: *; / = no result given.

SMILES	Polio RdRp inh	Polio RdRp inh intensity	MbtI inh	Mtb MenB inh
COC(=O)C1=C(N)OC2=C(C(=O)CCC2)C1c1cccnc1 (configuration not stated)	/	/	-6.0	/
c1ccc(CSc2nncn2-c2ccccc2)cc1	/	/	-8.2	/
Fc1ccccc1Cn1c(CSC2=NCCN2)nc2ccccc21	/	/	-13.9	/
O=C(NCc1ccccn1)c1cc(Sc2ccc(F)cc2)nc2ccccc12	/	/	-2.5	/
COc1ccccc1-c1cc(=O)[nH]c2c1CCCC2	/	/	-4.5	/
CC(=O)Nc1ccccc1-c1nc2ccccc2nc1OCC(=O)c1ccc(Cl)cc1	/	/	-12.1	/
CCOC(=O)Cn1c(=O)n(Cc2ccco2)c2ncccc21	/	/	7.4	/
CCN1CCN(c2cc(C)c3cc(NC(=O)c4ccncc4)ccc3n2)CC1	/	/	-16.6	/
O=C(c1cc2ccccc2oc1=O)n1cc(Br)cn1	/	/	-2.0	/
O=C(c1ccc2c(c1)N(Cc1ccccc1)C(=O)CS2)N1CCC2(CC1)OCCO2	/	/	-17.2	/
Nc1ccc(OCC(=O)O)cc1	/	/	-2.9	/
O=C(CSc1nnc(N2C(=O)c3ccccc3C2=O)s1)NC1CC1	/	/	-9.6	/
Cc1nc2ccccc2nc1OCc1ccc(Br)cc1	/	/	-9.1	/
CCOC(=O)C1=C(C)NC(=O)C(C(N)=O)C1c1ccccc1 (configuration not stated)	/	/	-7.7	/
CC(=O)OCCNc1ccc2noc3c2c1C(=O)c1ccccc1-3	/	/	8.1	/
Cn1c(=O)c2sccc2n2c(CCCC(=O)NCCc3ccc(Cl)cc3)nnc12	/	/	-19.5	/
O=C(NCCN1CCOCC1)c1csc2c1CCCC2	/	/	-10.2	/
O=C1c2ccccc2C(=O)N1CCc1ncn[nH]1	/	/	2.5	/
O=C(NCCc1ccc(Cl)cc1)C1CCCO1 (configuration not stated)	/	/	-5.1	/
COc1c(CO)cc(CO)cc(CO)c1=O	/	/	3.3	/
Oc1ccccc1C/C=C/c1ccccc1	/	/	-18.0	/
OC(c1ccccc1)c1nc2ccccc2s1 (configuration not stated)	/	/	-2.9	/
CCn1c(=N)n(CC(O)c2cccs2)c2ccccc21 (configuration not stated)	/	/	-7.2	/
CCN1CCc2nc(SCC(=O)Nc3ccc(OC)cc3)c(C#N)cc2C1	/	/	5.7	/
CCOC(=O)C1=C(C)NC(=O)c2c(ccc(OC)c2OC)C1O (configuration not stated)	/	/	-1.8	/

Following part
SMILES	Polio RdRp inh	Polio RdRp inh intensity	MbtI inh	Mtb MenB inh
CN(c1nc(-c2ccccc2)cs1)C1CCS(=O)(=O)C1 (configuration not stated)	/	/	-2.0	/
Nc1c(NC2CCCCC2)c2ccccc2oc1=O	/	/	-9.0	/
O=C(O)C1CCN(C(=O)c2ccccc2C(=O)N2CCC(C(=O)O)CC2)CC1	/	/	-9.2	/
CCC(=O)Nc1c(-c2ccc(OC)cc2)c(=O)c2ccccc2n1C	/	/	/	2.2
O=C1c2ccccc2C(=O)C1c1ccc2ccccc2c1	/	/	/	-30.3
CCC(C)NC(=O)c1c(N)n(/N=C/c2ccc(OC)c(OC)c2)c2nc3ccccc3nc12 (configuration not stated)	/	/	/	-2.0
COCCNC(=O)c1c(N)n(/N=C/c2ccc(OC)c(OC)c2)c2nc3ccccc3nc12	/	/	/	-16.5
CC1CCN(c2nc3ccccc3nc2C(C#N)S(=O)(=O)c2cccc(Cl)c2)CC1 (configuration not stated)	/	/	/	10.8
Cc1cc(Nc2ccc(Cl)cc2)c2ccccc2n1	/	/	/	-8.9
O=C(O)/C(=C/C(=O)c1ccccc1)Nc1ccc(OC(F)(F)F)cc1	/	/	/	32.1*
Nc1c(C(=O)Nc2ccccc2)c2nc3ccccc3nc2n1/N=C/c1ccco1	/	/	/	-4.6
CCCCNC(=O)c1c(N)n(/N=C/c2cccnc2)c2nc3ccccc3nc12	/	/	/	-9.7
C=CCNC(=O)c1c(N)n(/N=C/c2ccccc2O)c2nc3ccccc3nc12	/	/	/	-19.1
Nc1c(C(=O)NCc2ccccc2)c2nc3ccccc3nc2n1/N=C/c1ccco1	/	/	/	-10.5
CCOC(=O)Cn1c(=O)n(-c2ccccc2OC)c2nc(-c3ccccc3C)nc(C(N)=O)c21	109.0	109.0	/	/
Cc1nn(S(=O)(=O)c2ccc(F)cc2)c(C)c1S(=O)(=O)N1CCC(C)CC1	110.0	103.0	/	/
O=C(Cn1ncc2c3ccccc3n(Cc3cccc(Cl)c3)c2c1=O)NC1CCCCCC1	155.0	177.0	/	/
CC(=O)Nc1ccc(S(=O)(=O)NC2(C(F)(F)F)C(=O)Nc3c2c(=O)[nH]c(=O)n3-c2ccc(C)c(C)c2)cc1 (configuration not stated)	104.0	105.0	/	/
COc1cccc(NC(=O)Cn2c(=O)n(-c3cccc(OC)c3)c(=O)c3c4c(sc32)CCCC4)c1	109.0	111.0	/	/
CCCC(=O)Nc1cc(C)c(O)c(-c2nc3ncccc3o2)c1	104.0	109.0	/	/
Cc1ccc(Nc2nc3ccccc3nc2-n2nc(C)cc2C)c(Cl)c1	104.0	108.0	/	/
CNC(=O)c1sc2ncccc2c1-n1cccc1	109.0	100.0	/	/
CCOc1ccc(-c2cc(C(=O)NCc3ccc(C)cc3)c3ccccc3n2)cc1	104.0	106.0	/	/
Cc1ccc(C)c(N2CCN(C(=O)c3ccc(CS(=O)(=O)c4ccc(Br)cc4)o3)CC2)c1	104.0	100.0	/	/
Cc1ccc2c(c1)c(=O)c(C(=O)c1ccncc1)cn2CC(=O)Nc1ccccc1Cl	103.0	113.0	/	/

(listing goes on)
SMILES	Polio RdRp inh	Polio RdRp inh intensity	MbtI inh	Mtb MenB inh
Cc1cccc(N2CCN(S(=O)(=O)c3ccc4c(c3)C(C(C)C)C(=O)N4)CC2)c1C (configuration not stated)	102.0	104.0	/	/
CCOC(=O)Cn1c(=O)oc2cc(S(=O)(=O)N3CCN(c4cccc(C)c4C)CC3)ccc21	104.0	106.0	/	/
CC(=O)c1ccc(NC(=O)CSc2nc(=O)n(Cc3ccncc3)c3c2CCC3)cc1	107.0	110.0	/	/
CCCCNC(=O)CN1C(=O)c2c(c3ccccc3n2C)C1c1ccc(OC)cc1 (configuration not stated)	112.0	110.0	/	/
Cc1ccc2c(=O)c(C(=O)c3ccc(Cl)cc3)cn(CC(=O)NC3CCCCC3)c2n1	114.0	116.0	/	/
CCc1ccc(C2=C(C)C(N3CCC(C(=O)NCc4ccc(C)o4)CC3)=NS2(=O)=O)cc1	108.0	113.0	/	/
Cc1ccc(C(C)C)c(OCC(=O)Nc2c(C(=O)c3ccccc3)oc3ccccc23)c1	109.0	111.0	/	/
CCN(CC)C(=O)c1sc2c(c1C)c(=O)n(-c1ccc(C)c(C)c1)c(=O)n2CC(=O)Nc1ccc(OC)cc1OC	101.0	110.0	/	/
CCCOc1ccc(-c2cccc(NS(=O)(=O)c3cccs3)c2)nn1	107.0	110.0	/	/
COc1ccc(NC(=O)Cn2c(=O)n(-c3ccc(C)c(C)c3)c(=O)c3c4c(sc32)CCCCC4)cc1Cl	108.0	105.0	/	/
CS(=O)(=O)c1oc(-c2ccc(F)cc2)nc1S(=O)(=O)c1ccc(Cl)cc1	112.0	112.0	/	/
CCOc1ccc(NS(=O)(=O)c2ccc3[nH]c4c(c3c2)CCCC4)cc1	109.0	115.0	/	/
CCC(Cn1nnc2ccccc2c1=O)NC(=O)Nc1cc(Cl)ccc1OC (configuration not stated)	102.0	105.0	/	/
COc1ccc(NC(=O)c2ccc3c(c2)nnn3C2CCCC2)cc1Cl	101.0	105.0	/	/
COc1ccc2c(c1)c1c(c(=O)n(-c3ccc(C)cc3)c(=O)n1CC(=O)c1ccc(Cl)cc1)n2C	112.0	115.0	/	/
COc1ccc2c(c1)sc1ncc(C(=O)NCc3cccc(Cl)c3)c(=O)n12	110.0	114.0	/	/
CCOc1ccc(-n2c(SCC(=O)c3ccccc3)nc3c([nH]c4ccccc43)c2=O)cc1	108.0	90.0	/	/
COc1ccc2nc(NC(=O)c3nc(S(=O)(=O)Cc4ccccc4F)ncc3Cl)sc2c1	108.0	115.0	/	/
Cc1cc(S(=O)(=O)NCC(c2ccco2)S(=O)(=O)c2ccccc2)ccc1F (configuration not stated)	105.0	107.0	/	/
Cc1ccc(CNC(=O)CN(c2ccc(C)cc2)S(=O)(=O)c2c(C)nn(C)c2C)cc1	103.0	105.0	/	/
Cc1cc(Cl)ccc1NC(=O)C1CCN(S(=O)(=O)c2ccc3[nH]c(=O)ccc3c2)CC1	110.0	118.0	/	/
CC(=O)N1CCCc2cc(S(=O)(=O)NCc3ccccc3Cl)ccc21	108.0	93.0	/	/
Cc1c(Cl)cccc1-n1nc(C)c2c(C)cc(=O)n(CC(=O)NCc3ccccc3)c21	100.0	91.0	/	/
Cc1ccc(-c2ccccc2C(=O)O)cc1	102.0	98.0	/	/
Cc1cccc(Nc2ncnc3onc(-c4ccc(Cl)cc4)c23)c1C	110.0	101.0	/	/

Following part
SMILES	Polio RdRp inh	Polio RdRp inh intensity	MbtI inh	Mtb MenB inh
COc1ccc(C(=O)N(Cc2ccco2)Cc2ccc(C)o2)cc1	114.0	113.0	/	/
Cc1ccc(S(=O)(=O)N2CCC(c3nnc(-c4cccc(C)c4)o3)CC2)cc1	106.0	108.0	/	/
COc1ccc(-c2cn3nc(N4CCC(C(=O)Nc5cc(Cl)ccc5OC)CC4)sc3n2)cc1	110.0	105.0	/	/
COc1ccc(N2C(=O)CCSC23C(=O)N(Cc2ccc(F)cc2)c2ccccc23)cc1Cl (configuration not stated)	111.0	107.0	/	/
Cc1ccc(NC(=O)Cn2nnc(C(=O)NCCc3ccccc3)c2N)cc1C	113.0	114.0	/	/
CCOC(=O)C1CCN(C(=O)Cn2ncc3c4ccccc4n(Cc4ccc(F)cc4)c3c2=O)CC1	101.0	106.0	/	/
COc1ccc(N(CC(=O)N2CCN(c3cccc(OC)c3)CC2)S(=O)(=O)c2c(C)noc2C)cc1	105.0	105.0	/	/
COc1ccc(NC(=O)c2cc(C)nc3c2c(C)nn3-c2cccc(Cl)c2C)c(OC)c1	102.0	107.0	/	/
CCOc1ccc(CN(CCc2ccc3c(c2)OCO3)Cc2cccc(Br)c2)cc1	102.0	105.0	/	/
CCOc1ccc(C(=O)Nc2ccc3nc(SCc4ccccc4)sc3c2)cc1	111.0	113.0	/	/
Cc1cc(=O)n2nc(N3CCC(C(=O)NCc4ccc(F)cc4)CC3)sc2n1	107.0	111.0	/	/
O=C(Nc1ccccc1)C1CCN(S(=O)(=O)c2ccc3c(c2)CCCN3C(=O)C2CCC2)CC1	112.0	109.0	/	/
CCc1ccccc1NC(=O)N1CCc2c([nH]c3ccccc23)C1c1ccc(C)cc1 (configuration not stated)	105.0	107.0	/	/
COC(=O)c1cc2occc2n1Cc1cccc(C)c1	107.0	107.0	/	/

Some of the compounds tested. The share of hits here may be higher or lower than overall.
